TRPML1 ag – agonists of human TRPML1 channel | TRPML1-expressing cells, Ca2+ dye fluorescence, FDSS; host cell line not named in the record; reference of the full effect not given here | activation, % (test concentration not listed) | actives 0.12% (n = 410,000) | Q9GZU1 | AID 624414; in the data active = activation above about 50%; inconclusive = about 30% to 50%; inactive = below about 30%; also: 0% is about no effect; the text of the record puts the active cut at 80%
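Cells: TRPML1-DL, 1X Tet inducer, ~16 h at 37 degrees C/5% CO2. Dye: ABD Ca8 no-wash + quencher, 45-90 min RT. Read: 10 s baseline, compound add, 110 s agonist phase; 54-4 EC80 (4uM final), 110 s antagonist phase.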
TRPML1 inh – inhibitors of human TRPML1 channel | AID 624415 | Q9GZU1 | TRPML1-inducible cells, Ca2+ dye fluorescence, FDSS; active compounds read low; inhibition of EC80 agonist-evoked calcium signal | actives 0.02% (n = 390,000) | activity change, negative = inhibition, % (no concentration beside the values); in the data active means activity change below about -50%; inconclusive means about -30% to -50%; inactive means above about -30%;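 also: stimulus is agonist 54-4 at its EC80 concentration; % is scaled to controls: 0 for no effect and ±100 for the full control effect; compound concentration not given in the record; the text of the record puts the active cut at -80%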
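TRPML1-DL cells, Tet-induced overnight (~16 h, 37 °C) at 1,500 cells/well, were loaded with Ca8 no-wash dye plus quencher for 45-90 min at room temperature. Compounds were pinned during FDSS kinetic reading; agonist 54-4 at EC80 (4 uM final) then added.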
TRPV1 PAM – potentiators of human vanilloid receptor 1 (TRPV1) | Q8NER1 | TRPV1-expressing cells, Fluo-8 calcium influx, capsaicin EC20 potentiation; host cell line not named in the record; control for the full effect not named in the record | potentiation, % at 8.33 µM | actives 0.02% (n = 320,000); active means potentiation above 80%; inconclusive means 30% to 80%; inactive means below 30%; also: 0% is about no effect
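TRPV1-expressing cells were cultured overnight at 35.5C and loaded with Fluo-8 calcium dye for 40 to 90 min at room temperature. After a 10 s baseline, compound was added and calcium influx was read kinetically for 3 min (ex 480/em 520 nm).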
CtBP-E1A inh – blocks the CtBP interaction with E1A. AlphaScreen GST-E1A/His-CtBP binding, 1536-well; active compounds read low; control for the full effect not named in the record. activity change, % (no concentration beside the values). actives 0.49% (n = 340,000). AID 651724; in the data active means activity change below about -65%; inconclusive means about -30% to -65%; inactive means above about -30%; also: % is scaled to controls: 0 for no effect and ±100 for the full control effect
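AlphaScreen with 125 nM GST-E1A and 125 nM His-CtBP (5X stocks) in Tris pH 8.0, 300 mM NaCl, BSA, Tween 20, TCEP. Compounds preincubated 2 h at 37 deg C, then glutathione donor/nickel acceptor beads added for 1 h at 37 deg C in dark.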
Six1-Eya2 blk – blocks human Six1 binding to Eya2 | Q15475+O00167 | AlphaScreen GST-Six1/His-Eya2 binding, biochemical; active compounds read low; control for the full effect not named in the record | activity change, % (test concentration not listed) | actives 0.56% (n = 360,000) | AID 651725; in the data active = activity change below about -65%; inconclusive = about -30% to -65%; inactive = above about -30%; also: % is scaled to controls: 0 for no effect and ±100 for the full control effect
Target sequence (O00167 whole entry, looked up): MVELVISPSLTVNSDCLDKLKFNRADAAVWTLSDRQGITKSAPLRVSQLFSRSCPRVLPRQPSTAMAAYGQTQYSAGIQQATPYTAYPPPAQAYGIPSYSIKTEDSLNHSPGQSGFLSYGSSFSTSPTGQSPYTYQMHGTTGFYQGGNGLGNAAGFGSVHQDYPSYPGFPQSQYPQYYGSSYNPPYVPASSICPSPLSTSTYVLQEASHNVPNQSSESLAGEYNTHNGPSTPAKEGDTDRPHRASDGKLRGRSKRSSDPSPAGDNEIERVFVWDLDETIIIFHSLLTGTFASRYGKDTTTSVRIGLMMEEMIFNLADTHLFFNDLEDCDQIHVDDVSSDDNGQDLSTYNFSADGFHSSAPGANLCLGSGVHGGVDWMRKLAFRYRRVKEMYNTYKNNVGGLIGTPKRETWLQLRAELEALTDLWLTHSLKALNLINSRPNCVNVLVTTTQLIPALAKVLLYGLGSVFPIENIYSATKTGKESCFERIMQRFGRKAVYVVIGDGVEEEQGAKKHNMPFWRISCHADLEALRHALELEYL
Target sequence (Q15475 whole entry, looked up): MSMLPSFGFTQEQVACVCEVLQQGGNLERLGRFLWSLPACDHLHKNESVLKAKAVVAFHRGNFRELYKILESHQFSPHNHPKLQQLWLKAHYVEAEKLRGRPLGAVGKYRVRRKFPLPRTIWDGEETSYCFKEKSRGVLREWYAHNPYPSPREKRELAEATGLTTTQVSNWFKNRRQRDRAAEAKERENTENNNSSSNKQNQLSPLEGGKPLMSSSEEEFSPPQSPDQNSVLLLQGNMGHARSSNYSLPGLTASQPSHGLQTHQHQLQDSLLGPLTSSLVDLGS
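Homogeneous AlphaScreen proximity assay pairing GST-Six1 with His-tagged Eya2 (added as 5X mix: 250 nM and 500 nM) in 50 mM Tris pH 8.0, 300 mM NaCl, 1 mM TCEP. Glutathione donor and nickel acceptor beads; 1 h, 37 °C, dark.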
D2 PAM – positive allosteric modulators of human D2 dopamine receptor; P14416; DiscoveRx D2 beta-arrestin cells, luminescence, 90 min; 100% = 57 uM dopamine signal; potentiation, % (concentration not given with the values); actives 0.23% (n = 360,000); AID 624464; active = potentiation of 50% or more; inconclusive = 30% to 50%; inactive = 30% or less;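 also: compound concentration not given in the record; tested on top of an EC20 dose of dopamine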
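PathHunter beta-arrestin assay in DiscoveRx D2 cells. Compounds were added with an EC20 of dopamine (50 nM final) for 90 min at 37 deg C. Luminescence was read 1 h after detection reagent, with 57 uM dopamine as the EC100 control.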
Starred values were filed as active, the others as inactive; ? = inconclusive; nt = no result given; & = joins results of further samples.

SMILES	TRPML1 ag	TRPML1 inh	TRPV1 PAM	CtBP-E1A inh	Six1-Eya2 blk	D2 PAM
O=C(/C=C/[C@H]1O[C@@H](n2cnc3c(NC(=O)c4ccccc4)ncnc32)[C@H](O)[C@@H]1O)NCc1cccs1	-0.1	nt	nt	2.1	4.0	-3.4
Oc1ccc(N=Nc2c(O)ccc3ccccc23)cc1	0.2	-2.4	-20.2	-74.7*	-69.8*	-14.8
COCc1c(C(=O)N2CCN(CCOc3ccccc3)CC2)oc2ccccc12	0.6	-4.7	-15.2	-5.4	-1.1	9.8
COc1ccc(OC)c(S(=O)(=O)NCCCN2CCOCC2)c1	-0.8	-5.2	nt	nt	-6.2	-11.8
Cc1cccc(C)c1NC(=O)CN(C)C(=O)C1CC(=O)N(c2cccc3ccccc23)C1 (centres undefined)	-0.1	4.1	9.9	5.4	8.1	-5.2
O=C(CSc1nc(=O)n2ccccc2n1)NCc1ccccc1Cl	-0.6	16.1	-6.9	0.6	2.6	0.7
Nn1c(-c2cccs2)nc2sc3c(c2c1=O)CCCC3	-0.1	2.7	-10.7	25.7	25.2	-12.6
COc1ccc(-c2nc(NC(=O)CSc3nnc4ccccn34)ns2)cc1	-0.7	6.4	1.5	-5.3	-1.3	6.1
COc1ccc(CCN2C(=S)N(c3ccc(Cl)cc3)C(=O)C2CC(N)=O)cc1OC (centres undefined)	-0.7	18.1	14.7	6.6	3.6	2.4
Cn1c2ccccc2c2cnn(CC(=O)Nc3ccc(Cl)cc3)c(=O)c21	0.6	-0.9	-3.9	nt	2.9	-10.1
O=C(O)C1=C[C@H](c2ccc3c(c2)OCO3)C[C@H](OCc2ccc(CO)cc2)O1	-0.5	37.5	nt	-3.2	-14.5	-60.5
Cc1cc[n+](C(C)C(=O)c2ccc(Cl)cc2)cc1 (centres undefined)	0.4	-10.3	29.8	-16.0	20.0	-14.1
Nn1c(Cc2ccc(Br)cc2)n[nH]c1=S	-0.1	-0.1	19.4	6.7	5.6	-4.7
Cc1ccc(CN2[C@@H](c3ccccc3)COCCS2(=O)=O)cc1	2.2&0.1	36.9	6.4	5.6	7.1	-11.2
COc1ccc(CNC(=O)c2c(O)c3cccc4c3n(c2=O)CCC4)cc1	0.3	-15.5	-0.7	3.7	5.4	2.6

Entries of single compounds from above.
Listed for Nn1c(-c2cccs2)nc2sc3c(c2c1=O)CCCC3 = TRPML1 ag = -0.1; TRPML1 inh = 2.7; TRPV1 PAM = -10.7; CtBP-E1A inh = 25.7; Six1-Eya2 blk = 25.2; D2 PAM = -12.6
Listed for COCc1c(C(=O)N2CCN(CCOc3ccccc3)CC2)oc2ccccc12 = TRPML1 ag = 0.6; TRPML1 inh = -4.7; TRPV1 PAM = -15.2; CtBP-E1A inh = -5.4; Six1-Eya2 blk = -1.1; D2 PAM = 9.8

Other structures
SMILES	TRPML1 ag	TRPML1 inh	TRPV1 PAM	CtBP-E1A inh	Six1-Eya2 blk	D2 PAM
CCOC(=O)C1CN(S(=O)(=O)c2cccc(C(F)(F)F)c2)c2cc(CC(=O)OC)ccc2O1 (centres undefined)	-0.3	5.8	-16.9	12.5	3.5	-12.2
CNc1nc(N/N=C/c2ccc([N+](=O)[O-])cc2)nc(Nc2ccccc2)n1	1.1	-10.4	10.4	-6.0	-20.9	-26.5
CC1(C(=O)NCc2ccccc2)Cc2c(-c3ccc4c(c3)OCO4)ccnc2O1 (centres undefined)	-0.7	nt	nt	-11.8	-2.7	-12.9
Cc1ccc(NC(=O)c2ccc3c(c2)CCN3S(C)(=O)=O)c(C)c1	1.2	19.1	-14.3	2.9	6.3	0.3
COc1ccc(/C=C/C(=O)Oc2ccc(/C=N/NC(=O)c3ccccc3)cc2)cc1OC	0.6	-19.5	-4.0	-75.0*	1.9	6.5
COc1ccccc1N(CC(=O)Nc1ccc(C)cc1Cl)S(=O)(=O)c1cccs1	0.3	23.0	nt	2.1	-0.5	-3.3
CCCNC(=O)C(Cc1ccccc1)NC(=O)c1ccccc1 (centres undefined)	-0.7	-3.6	1.3	3.1	-1.1	-2.4
COc1cccc(C(=O)NCC(=O)NCc2cc(=O)n(C)c(=O)n2C)c1OC	0.4	1.2	2.6	6.7	2.1	-9.0
O=C(NCc1nc2ccccc2[nH]1)C1=C[C@H](c2coc3ccccc3c2=O)C[C@H](OCCCCO)O1	0.1	-26.9	nt	-3.1	-3.9	-14.2
CC(=O)Nc1ccc(SCC(=O)c2ccc(Br)s2)cc1	-0.8	2.8	5.8	-4.3	-2.4	4.9
CC(=O)c1ccc(CC2SC(N)=NC2=O)cc1 (centres undefined)	-0.7	-9.2	3.2	nt	10.9	-18.6
CCOC(=O)COc1cc(OCC(=O)OCC)c2c(=O)cc(-c3ccccc3)oc2c1	-0.9	2.0	4.7	-1.1	-2.5	-8.2
O=C(NCCCN1CCN(Cc2ccccc2)CC1)C1CCN(S(=O)(=O)N2CCC3(CC2)OCCO3)CC1	-0.3	1.3	-20.1	nt	1.1	-7.8
CCn1c(CSc2ncn[nH]2)nc2cc(C(=O)O)ccc21	-0.5	-4.3	26.7	12.3	2.7	-5.5
CCN(CC)CCNC(=O)C(Oc1ccccc1)Oc1ccccc1	0.3	-13.7	3.4	3.0	2.3	-24.6
COCC1CCCCN1C(=O)C1CCN(c2nc(-c3ccccc3)nc3c2CCC3)CC1 (centres undefined)	-0.6	25.8	10.4	-0.9	-6.1	-8.1
Cc1cccc(C2c3[nH]c4ccccc4c3CCN2C(=O)c2cc(C(C)C)nc(N)n2)n1 (centres undefined)	0.1	6.5	-6.6	-14.0	-6.7	0.5
O=C(c1ccccc1)N1CCN(c2nc3ccc([N+](=O)[O-])cc3s2)CC1	0.2	-3.3	4.2	nt	-10.4	-1.5
CCCCNC(=O)C1(C)CCCCCN1Cc1cccc2c(OC)cc(C(=O)OCC)cc12 (centres undefined)	0.7	nt	nt	3.2	-1.5	0.4
COCc1nnc(NC(=O)CS(=O)(=O)c2ccc(C)cc2)s1	0.0	2.9	5.0	-7.2	8.7	-0.9
Cn1c(=O)c2c(nc(CN3CCN(C(=O)c4ccco4)CC3)n2CC(=O)C(C)(C)C)n(C)c1=O	1.2	?	-1.8	-11.0	-16.3	0.5
COc1cccc(C2C=C(c3ccc(Br)s3)Nc3ncnn32)c1OC (centres undefined)	1.7	5.7	-1.7	-19.5	-19.7	-18.5
COc1ccc(C(=O)N(C)C2CCCCC2)cc1S(=O)(=O)N1CCOCC1	0.7	5.6	-5.6	1.8	7.7	-0.9
O=C(NCN1CCCCC1)c1cccnc1	-0.5	-5.9	-6.4	-0.9	4.3	-1.1
COc1ccc(C(=O)Nc2cccc(C(=O)N3CCN(C)CC3)c2)cc1	-0.5	9.6	-8.7	1.8	-1.5	-5.0
COc1ccc(NC(=O)c2ccccc2Cl)c(NC(=O)c2ccco2)c1	-0.8	-4.1	-10.0	0.3	-0.3	15.3
CCc1nnc(NS(=O)(=O)c2ccc(NC(=S)NC(=O)c3ccccc3)cc2)s1	1.5	30.5	-8.7	-7.3	0.1	-25.1
COc1cc(C(=O)Nc2cccc(-c3nc4cc(C)ccc4o3)c2C)cc(OC)c1OC	-0.2	34.8	3.3	4.1	1.9	-34.3
O=C(CSc1ccc2c(c1)OCCO2)NC(=O)Cc1ccccc1	0.6	-4.6	-30.4	0.0	-6.0	-9.5
COC(=O)c1ccccc1NC(=O)NCC1CCCO1 (centres undefined)	-0.8	-8.0	-28.9	3.3	8.0	-5.0
Cc1ccc(S(=O)(=O)/N=C2\C(=O)c3ccccc3C([O-])=C2n2cc[n+](CCC(C)C)c2)cc1	-0.2	0.2	2.0	2.5	-3.4	11.8
CN1C(=O)C(=O)/C(=C(/O)c2ccc(Br)cc2)C1c1cccc([N+](=O)[O-])c1 (centres undefined)	0.3	-4.1	10.3	-0.4	3.3	-4.3
Cc1occc1C(=O)Nc1nnc(C2CCCCC2)s1	-0.5	-2.1	-6.2	11.1	0.7	-0.4
COC(=O)CSc1nc(N)c(NC(=O)c2ccc(OC)c(OC)c2)c(=O)[nH]1	0.2	16.1	0.8	-2.9	0.2	-3.5
CCCCN1C(=O)c2ccc(C(=O)N(C)CC(=O)Nc3ccc(OCC)c(OCC)c3)cc2C1=O	0.0	13.4	nt	-1.0	-17.7	-12.7
COc1ccc(NS(=O)(=O)c2cc(NC(=O)c3ccc(=O)[nH]c3)ccc2N2CCCC2)cc1	-0.7	-8.0	-7.3	?	-19.0	-4.7
O=[N+]([O-])c1cccc(S(=O)(=O)Nc2ccc(S(=O)(=O)N3CCCC3)cc2)c1	0.0	6.8	nt	-0.9	-0.7	3.1
COc1ccc(/C(N)=N/OC(=O)c2cccc([N+](=O)[O-])c2)cc1OC	-0.3	4.7	2.9	-2.3	1.1	-8.2

Entries from the list above that contain two or more sulfur atoms (7):
SMILES	TRPML1 ag	TRPML1 inh	TRPV1 PAM	CtBP-E1A inh	Six1-Eya2 blk	D2 PAM
Nn1c(-c2cccs2)nc2sc3c(c2c1=O)CCCC3	-0.1	2.7	-10.7	25.7	25.2	-12.6
COc1ccc(-c2nc(NC(=O)CSc3nnc4ccccn34)ns2)cc1	-0.7	6.4	1.5	-5.3	-1.3	6.1
COc1ccccc1N(CC(=O)Nc1ccc(C)cc1Cl)S(=O)(=O)c1cccs1	0.3	23.0	nt	2.1	-0.5	-3.3
CC(=O)Nc1ccc(SCC(=O)c2ccc(Br)s2)cc1	-0.8	2.8	5.8	-4.3	-2.4	4.9
COCc1nnc(NC(=O)CS(=O)(=O)c2ccc(C)cc2)s1	0.0	2.9	5.0	-7.2	8.7	-0.9
CCc1nnc(NS(=O)(=O)c2ccc(NC(=S)NC(=O)c3ccccc3)cc2)s1	1.5	30.5	-8.7	-7.3	0.1	-25.1
O=[N+]([O-])c1cccc(S(=O)(=O)Nc2ccc(S(=O)(=O)N3CCCC3)cc2)c1	0.0	6.8	nt	-0.9	-0.7	3.1

Source: PubChem BioAssay
